# Screening data: PubChem BioAssay, National Center for Advancing Translational Sciences (NCATS)
# TRPML1 blocker = qHTS for Inhibitors of the Human Mucolipin Transient Receptor Potential 1 (TRPML1). Mucolipin-1 (Homo sapiens), Q9GZU1. TRPML1-inducible cells, Ca2+ dye fluorescence, FDSS; stronger effect = lower value; inhibition of EC80 agonist-evoked calcium signal. activity change, negative = inhibition, % (test concentration not listed). hit rate 0.02% among 390,000; in the data active means activity change below about -50%; inconclusive means about -30% to -50%; inactive means above about -30%;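 also: stimulus is agonist 54-4 at its EC80 concentration; % is scaled to controls: 0 for no effect and ±100 for the full control effect; compound concentration not given in the record; the text of the record puts the active cut at -80%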
# Target sequence (Q9GZU1 whole entry, looked up): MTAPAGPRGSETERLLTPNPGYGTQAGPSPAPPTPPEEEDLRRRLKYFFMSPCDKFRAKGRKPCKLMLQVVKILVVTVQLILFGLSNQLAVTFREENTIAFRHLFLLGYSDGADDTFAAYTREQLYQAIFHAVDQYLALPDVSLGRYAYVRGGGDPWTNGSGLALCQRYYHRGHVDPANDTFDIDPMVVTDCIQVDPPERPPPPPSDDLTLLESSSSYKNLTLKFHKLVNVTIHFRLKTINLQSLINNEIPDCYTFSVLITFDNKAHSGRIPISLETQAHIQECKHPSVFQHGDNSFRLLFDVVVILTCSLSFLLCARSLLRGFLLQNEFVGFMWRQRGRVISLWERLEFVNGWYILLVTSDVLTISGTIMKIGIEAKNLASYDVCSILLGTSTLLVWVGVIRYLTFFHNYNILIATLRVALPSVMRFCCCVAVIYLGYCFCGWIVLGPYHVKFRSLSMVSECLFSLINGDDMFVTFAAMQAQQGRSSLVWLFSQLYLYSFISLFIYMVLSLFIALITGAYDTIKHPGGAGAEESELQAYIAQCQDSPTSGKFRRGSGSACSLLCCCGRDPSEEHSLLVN
#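 TRPML1-DL cells, Tet-induced overnight (~16 h, 37 °C) at 1,500 cells/well, were loaded with Ca8 no-wash dye plus quencher for 45-90 min at room temperature. Compounds were pinned during FDSS kinetic reading; agonist 54-4 at EC80 (4 uM final) then added.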
# TRPML1 ag = qHTS for Agonists of the Human Mucolipin Transient Receptor Potential 1 (TRPML1); Mucolipin-1 (Homo sapiens), Q9GZU1; TRPML1-expressing cells, Ca2+ dye fluorescence, FDSS; host cell line not named in the record; reference of the full effect not given here; activation, % (concentration not given with the values); hit rate 0.12% among 410,000; in the data active = activation above about 50%; inconclusive = about 30% to 50%; inactive = below about 30%; also: 0% is about no effect; the text of the record puts the active cut at 80%
#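 Agonist activity was taken from a 110 s kinetic Ca2+ dye read on the FDSS after pinning compounds onto TRPML1-DL cells. The cells were seeded at 1,500/well with Tet inducer, incubated about 16 h, then dye-loaded at room temperature.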
# * = called active by the depositor; ? = inconclusive. Not all compounds are listed. The share of hits here may be higher or lower than overall.
# Start of the listing, in advance, seven compounds:
SMILES,TRPML1 blocker,TRPML1 ag
CC(C)Oc1ccc(CNC(=O)c2ccc3c(c2)nc2n3CCOC2)cc1,-0.2,-0.7
Cn1nnc2c(N3CCCCC3)ncnc21,-22.0,-0.2
CN(Cc1ccccc1)c1ccc(-c2nc(-c3cccnc3)no2)cc1[N+](=O)[O-],2.6,-0.6
CCc1ccc(C2=NN(CCC(=O)NCCc3ccc(Cl)cc3)C(=O)CC2)cc1,-16.1,3.2
CCOC(=O)c1cc(S(=O)(=O)Nc2cc(F)ccc2C)[nH]n1,-7.0,-0.1
CCCCC(CC)CNC(=O)c1ccc(Cn2c(=O)[nH]c3cc(OC)c(OC)cc3c2=O)cc1 (stereo not given),-4.3,-0.6
Cc1ccc(NC(=O)NCCc2c(C)nn(C)c2C)cc1Cl,-12.9,1.0

# Main list, from the start:
SMILES,TRPML1 blocker,TRPML1 ag
CC(C)Oc1ccc(CNC(=O)c2ccc3c(c2)nc2n3CCOC2)cc1,-0.2,-0.7
Cn1nnc2c(N3CCCCC3)ncnc21,-22.0,-0.2
CN(Cc1ccccc1)c1ccc(-c2nc(-c3cccnc3)no2)cc1[N+](=O)[O-],2.6,-0.6
CCc1ccc(C2=NN(CCC(=O)NCCc3ccc(Cl)cc3)C(=O)CC2)cc1,-16.1,3.2
CCOC(=O)c1cc(S(=O)(=O)Nc2cc(F)ccc2C)[nH]n1,-7.0,-0.1
CCCCC(CC)CNC(=O)c1ccc(Cn2c(=O)[nH]c3cc(OC)c(OC)cc3c2=O)cc1 (stereo not given),-4.3,-0.6
Cc1ccc(NC(=O)NCCc2c(C)nn(C)c2C)cc1Cl,-12.9,1.0
COc1ccc(CCC(=O)NC2CC(=O)N(c3ccc(C)cc3)C2)cc1 (stereo not given),-4.9,-1.0
Cc1ccc(NC(=O)CN2C(=O)c3ccccc3Sc3ccc(C(=O)N4CCOCC4)cc32)cc1F,-1.7,2.4
Cc1nc(-c2ccc(C)c(N3CCN(C(=O)Nc4cccc(Cl)c4C)CC3)c2)no1,-5.8,2.6
Fc1ccccc1N1CCN(c2ncnc3onc(-c4ccc(Cl)cc4)c23)CC1,-8.1,0.9
COc1ccc(NC(=O)c2ncoc2-c2ccco2)cc1Cl,-16.2,2.4
CC1CCN(C(=O)Cn2c(=O)n(-c3ccc(Cl)cc3)c(=O)c3c4c(sc32)CCC4)CC1,5.3,1.5
CCOc1ccc(NC(=O)Cn2cc(C(=O)c3ccc(CC)cc3)c(=O)c3cc(OC)c(OC)cc32)cc1,-18.5,-0.2
CCCCn1c(SCC(=O)NCc2ccc(C)cc2)nc2c(sc3ccccc32)c1=O,3.3,0.1
Cc1cc2n(n1)CCCN2C(=O)Nc1ccc(Cl)cc1,-3.8,-0.1
Cc1cccc(C(=O)Nc2ccc(-c3nc4ccccc4s3)c(C)c2)c1,-5.9,-0.2
COc1cc(OC)c(C2CC(=O)Nc3ccc4ccccc4c32)cc1OC (stereo not given),-4.9,0.1
CCN(CC)C(=O)c1sc2c(c1C)c(=O)n(CCc1ccccc1)c(=O)n2Cc1ccc(F)cc1Cl,11.6,0.7
Cc1ccc(CCNC(=O)c2ccc(CSCc3ccccc3Cl)o2)cc1,4.9,4.0
Cc1noc(/C=C/c2cccs2)c1S(=O)(=O)N1CCC(C(=O)Nc2ccc(F)c(Cl)c2)CC1,-11.5,0.4
CCOc1ccc(NC(=O)CCc2nc3cccnc3n2-c2ccccc2)cc1,-3.9,1.7
Cc1ccc(CCNC(=O)c2ccc3c(c2)N(Cc2cccc(F)c2)C(=O)c2ccccc2S3)cc1,63.8,1.6
Cn1nc(C(=O)NCc2ccc(F)cc2)c2c1-c1ccccc1SC2,44.7,2.6
Cc1ccc2c(=O)cc(C(=O)Nc3sc4c(c3C(=O)NCc3cccnc3)CCCC4)oc2c1C,-29.5,1.2

# (list continues)
SMILES,TRPML1 blocker,TRPML1 ag
COc1cccc(C(=O)NCC2OCCc3ccccc32)c1 (stereo not given),3.1,0.4
CCOC(=O)c1c(C)[nH]c(CCC(=O)NCc2ccc(CC)cc2)c1C,20.3,1.9
Cc1ccccc1OCc1nnc(SCc2cc(=O)c3cccc(F)c3[nH]2)n1C,27.2,3.0
COc1ccc(N2CCN(S(=O)(=O)c3ccc(CC(C)C)cc3)CC2)cc1,-14.7,0.2
O=C(NC1CCCC1)c1ccc2c(=O)n(Cc3ccccc3)c(SCc3ccc([N+](=O)[O-])cc3)nc2c1,40.3,1.1
COc1ccc(-c2c(C3C4C=CCCC4(C)C(=O)N3Cc3ccccc3)ccc3ccccc23)cc1 (stereo not given),5.7,0.3
CC(C)N(C(=O)Cn1cc(SCC(=O)Nc2ccccc2C(F)(F)F)c2ccccc21)C(C)C,-26.3,2.6
CC(NC(=O)c1cccc(NC(=O)c2nsc3ccccc23)c1)c1ccccc1 (stereo not given),3.8,3.5
Cc1ccc(F)c(C2C3C=CCC(C)C3C(=O)N2Cc2ccccc2)c1 (stereo not given),82.8,3.6
O=C(NCc1ccccc1)c1nn(-c2ccccc2)nc1CO,27.6,3.5
COc1ccccc1N1CCN(c2ncnc3onc(-c4ccc(F)cc4)c23)CC1,-2.2,0.8
O=C(CSc1nc(-c2ccc(F)cc2)[nH]c1-c1ccccc1)Nc1ccccc1,-22.1,2.1
CCOc1ccc(CCNC(=O)c2ccc(C)c(-n3c(C)nc4cccnc43)c2)cc1OCC,1.5,1.8
Cc1ccc(NC(c2ccc(Cl)cc2)c2nnc(-c3cccc(F)c3)o2)cc1C (stereo not given),-1.7,-0.2
CCOc1ccc(OCC)c(NC(=O)c2cnn(-c3ccc(F)cc3)c2-n2cccc2)c1,15.6,2.6
COc1ccccc1N1CCN(C(=O)CSc2nc(-c3ccc(C(C)C)cc3)no2)CC1,-25.0,2.5
Cc1ccc(-n2nc(CO)c(C(=O)NC(C)CCCc3ccccc3)n2)cc1C (stereo not given),48.8,4.4
Cc1ccc2nc(N3CCN(C(=O)C4CC4)CC3)sc2c1,-4.8,2.6
Cc1nn(CC(=O)NCc2cccc(Br)c2)c(=O)c2c1sc1ccccc12,90.2,-0.4
O=c1cc(-c2ccccc2)n2c(SCc3c(F)cccc3Cl)nnc2[nH]1,-8.2,0.6
CCNS(=O)(=O)c1cc(-c2nnc(Nc3cccc(C(F)(F)F)c3)c3ccccc23)ccc1C,-9.2,0.9
Nc1nn(-c2ccccc2)nc1C(=O)OCc1c(F)cccc1Cl,-2.6,2.2
CC(=O)Nc1cccc(-n2cc3c(c2-c2ccccc2Cl)c(=O)n(C)c(=O)n3C)c1,10.0,-0.8
COc1cc(OC)cc(C(=O)Nc2ccc(-c3nc4ccccc4s3)c(C)c2)c1,5.4,0.8
Cc1c(Cl)cccc1N1C(N)=C(C#N)C(c2cc(CN3CCOCC3)cs2)C2=C1CCCC2=O (stereo not given),16.9,2.5

# New compounds follow:
SMILES,TRPML1 blocker,TRPML1 ag
COc1ccc(-c2ccc(=O)n(CC(=O)Nc3ccc(Br)cc3F)n2)cc1,18.4,5.0
Cc1ccc(CN2CCCn3nc(C(=O)NC(C)C)cc3C2=O)cc1,12.5,-0.2
CCc1ccc(NC(=O)c2ccc(-c3ccccc3)s2)cc1,-3.0,0.5
CC(=O)Nc1ccc(-n2c(CCC(=O)O)ccc2-c2ccc(Br)cc2)cc1,0.4,0.5
O=C(c1nc(-c2ccc(Cl)cc2)n2c1CCCCC2)N1CCN(c2ccccc2)CC1,-8.2,-0.2
CCN1Cc2cccc(C(=O)Nc3ccc(F)cc3)c2C1=O,4.6,1.0
CCOc1ccc(CNC(=O)CCS(=O)(=O)c2cc3c4c(c2)CCN4C(=O)CC3)cc1,0.3,-0.9
COC(=O)CSc1nc2sc3c(c2c(=O)n1-c1ccccc1)C(C)CCC3 (stereo not given),-6.2,-0.3
O=c1c2oc3ccccc3c2n(Cc2cccc(Cl)c2)c(=O)n1Cc1ccc2c(c1)OCO2,21.3,0.2
Cc1ccc(C(C)C)c(OCC(O)CN2CCN(c3ccccc3F)CC2)c1 (stereo not given),-12.1,0.9
Cc1cccc(Cn2cccc2CNS(=O)(=O)c2ccc(C)c(C)c2)c1,9.7,4.7
COc1ccc(OCC(=O)Nc2ccc3c(c2)N(C)C(=O)c2ccccc2S3)cc1,-14.0,1.5
COC(=O)c1c(NC(=O)Cc2coc3cc(C)ccc23)sc2c1CCC2,-16.2,1.7
COC(=O)c1ccccc1NC(=O)c1cc(CN2CCOCC2)on1,?,0.9
Cc1cccc(C(=O)Nc2nnc(S(=O)(=O)N(C)c3ccccc3C)s2)c1,-17.0,3.5
COc1ccc(NC(=O)c2c(NCc3sccc3C)sc3c2CCCC3)c(OC)c1,20.4,-0.1
CN(C)c1oc(-c2ccc(COc3ccccc3)o2)nc1C#N,-23.5,4.0
CC1=C(C(=O)OC2CCCC2)C(c2c(F)cccc2Cl)CC(=O)N1 (stereo not given),6.9,2.0
Cc1ccc(-n2nc(C)c3nc(CCC(=O)Nc4cccc(F)c4)c(=O)n(C)c32)cc1,12.3,0.2
CC(C)(C)c1ccc(C(=O)NCCc2csc(-c3ccc(Cl)cc3)n2)cc1,39.7,1.7
CC(=O)N1c2c(cc(Br)cc2S(=O)(=O)NCc2ccccc2Cl)CC1C (stereo not given),12.3,-0.6
CCOc1ccc2c(c1)c(=O)c(S(=O)(=O)c1ccc(C)cc1)cn2Cc1ccccc1Cl,-17.5,1.0
COCC(=O)N1c2nc(C(C)C)nn2C2(CCCCC2)[C@@H]2CCCC[C@@H]21,-13.5,2.1
COCCNC(=O)C1(C(F)(F)F)C/C(=C\Cc2ccccc2)CCCO1 (stereo not given),-2.3,-0.1
CC(C)c1ccc(CN(Cc2ccco2)c2cnc(S(C)(=O)=O)nc2C(=O)Nc2ccccc2)cc1,-14.2,0.5

# 3 entries from above, bar-delimited.
SMILES | TRPML1 blocker | TRPML1 ag
Cc1ccc(NC(c2ccc(Cl)cc2)c2nnc(-c3cccc(F)c3)o2)cc1C (stereo not given) | -1.7 | -0.2
CCOc1ccc(OCC)c(NC(=O)c2cnn(-c3ccc(F)cc3)c2-n2cccc2)c1 | 15.6 | 2.6
COc1ccccc1N1CCN(C(=O)CSc2nc(-c3ccc(C(C)C)cc3)no2)CC1 | -25.0 | 2.5

# (continued)
SMILES,TRPML1 blocker,TRPML1 ag
COc1cc(C2CC(=O)c3c([nH]c(C(=O)OC4CCCC4)c3C)C2)cc(OC)c1OC (stereo not given),1.4,2.0
CCC(Oc1ccccc1)C(=O)Nc1ccccc1OCc1cc(=O)n2ccccc2n1 (stereo not given),-11.8,0.8
CCOC(=O)c1c(NC(=O)COc2cccc(C)c2C)sc(C(C)=O)c1C,-17.3,-0.6
CC1CCCN(C(=O)c2cc3ccc4cccnc4c3[nH]2)C1 (stereo not given),49.1,0.6
O=C(Nc1ccc(S(=O)(=O)N2CCC(c3nc4ccccc4s3)CC2)cc1)c1ccc(F)cc1,15.3,-0.6
CCCS(=O)(=O)N1CCC(N2CCN(Cc3ccc(C)cc3)C(=O)C2=O)CC1,-14.9,-1.3
COc1cccc(C2CC(=O)N3CN(C4CCCCC4)CSC3=C2C#N)c1 (stereo not given),-6.5,-0.7
CCc1ccccc1NC(=O)c1cc(S(=O)(=O)NC2CCCC2)ccc1F,-14.4,1.4
O=C(Nc1ccc(C(=O)N2CCCCC2)cc1)c1nsc2ccccc12,1.6,1.5
Cc1oc2ncn(C)c(=O)c2c1C(=O)NCCCN1CCCC(C)C1 (stereo not given),-0.8,0.1
O=C(NCc1ccccc1)C(=O)NCC(c1ccco1)S(=O)(=O)c1ccccc1 (stereo not given),-4.9,0.7
CSc1ccc(CCNC(=O)CN2C(=O)COc3ccc(S(=O)(=O)N4CCCC4)cc32)cc1,-0.8,2.7
Cc1cc(C)cc(-n2c(SCC(N)=O)nc3c(oc4ccccc43)c2=O)c1,-27.0,-0.7
COc1ccc(-c2nn3c(-c4ccccc4)nnc3c3ccccc23)cc1,10.6,0.8
COc1cc(Cl)c(NC(=O)CCc2nc3cccnc3n2-c2ccccc2)c(OC)c1,18.1,1.6
COc1ccc(NC(=O)N2CCN(S(=O)(=O)c3ccc4c(ccn4C)c3)CC2)cc1OC,-1.7,1.1
COc1cc(OC)c(NC(=O)C2CCCN(c3ncnc4c3nc3n4CCCCC3)C2)cc1Cl (stereo not given),-11.0,0.6
COc1ccc(CCC(=O)NCCc2csc(-c3ccc(Cl)cc3)n2)cc1,-23.1,4.5
COc1ccccc1N1CCN(C(c2ccc(Cl)cc2)c2nnc(-c3cccc(F)c3)o2)CC1 (stereo not given),-6.4,0.6
CCCCC(=O)N1C/C=C\C(c2ccc(OC)cc2)N(Cc2ccc(F)cc2)C(=O)C1Cc1ccccc1 (stereo not given),67.6,0.7
Cc1cccc(-n2cnc3cc(C(=O)NC4CCCCCC4)ccc32)c1,-0.6,1.9
O=C(C1COc2ccccc2O1)N(Cc1cccnc1)c1nc2c(Cl)cccc2s1 (stereo not given),15.1,2.2
Cc1ccc(NC(=O)c2nnn(Cc3cccc(C(F)(F)F)c3)c2N)c(C)c1,-11.1,0.1
